# Source: PubChem BioAssay (National Center for Advancing Translational Sciences (NCATS))
# Rango-impB inh: inhibitors of Rango-importin beta complex formation | Rango CFP/YFP FRET sensor + importin beta, 45 min | Potency, µM (titrated, usually from 92.2 µM), for inactives: at the highest dose inhibition of complex formation | hit rate 0.031% among 340,000; active = rising FRET ratio curve, often small or poorly fitted; inconclusive = mostly compound fluorescence or quenching in the first reads; inactive = flat curves in all reads;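 further: potency means the concentration at half of the fitted maximal effect; 0% = DMSO wells and 100% = buffer wells lacking importin beta; nearly all actives have a fitted effect of over 15% in size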
#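 FRET biosensor Rango (snurportin 1 IBB between N-terminal EYFP and C-terminal Cerulean), 50 nM in PBS/1 mM DTT/0.02% Tween-20/0.1% BSA, preincubated 5 min RT with compound; 0.125 microM importin beta added, 45 min RT, CFP/YFP FRET ratio read.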
# Rango release inh: prevents RanGTP from dissociating the Rango-importin beta complex; Biochemical FRET Rango-importin beta, RanGTP-induced dissociation; AID 540253; hit rate 0.071% among 340,000; O95149+P62826; Potency, µM (titrated, usually from 46.1 µM), for the others: at the top dose activity change, negative = inhibition; active means falling FRET ratio curve, often poorly fitted, with flat reads before Ran was added; inconclusive means other falling curves, or compound fluorescence or quenching; inactive means flat or rising ratio curve;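 further: potency means the concentration at half of the fitted maximal effect; % of control where 0% means no effect; nearly all actives have a fitted effect of over 45% in size; -100% = wells without RanGTP and RCC1; the record marks most hits as doubtful in a second field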
#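 Compounds sat 5 min at room temperature with 0.1 uM Rango biosensor plus 0.25 uM importin beta, then FRET pre-read. RanGTP-RCC1 (0.6 uM Ran, 2mM GTP, 0.2 uM RCC1) added for 45 min, and the CFP/YFP post-read measured blocked complex dissociation.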
# GLA inh pH 4.5: inhibitors of human alpha-galactosidase A at pH 4.5. P06280. purified enzyme, 4-MU-alpha-Gal fluorescence, pH 4.5. activity change, negative = inhibition, % at 105 µM. 230,000 tested, under 10 active. AID 1467; inconclusive = small, poorly fitted or top-dose-only inhibition, or a rising curve; inactive = flat fitted curve, though single readings scatter; no compound was filed as active;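 further: 0% = full activity with enzyme and -100% = basal without enzyme; dose as in the result columns while the protocol names 77 µM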
# Target sequence (P06280 whole entry, looked up): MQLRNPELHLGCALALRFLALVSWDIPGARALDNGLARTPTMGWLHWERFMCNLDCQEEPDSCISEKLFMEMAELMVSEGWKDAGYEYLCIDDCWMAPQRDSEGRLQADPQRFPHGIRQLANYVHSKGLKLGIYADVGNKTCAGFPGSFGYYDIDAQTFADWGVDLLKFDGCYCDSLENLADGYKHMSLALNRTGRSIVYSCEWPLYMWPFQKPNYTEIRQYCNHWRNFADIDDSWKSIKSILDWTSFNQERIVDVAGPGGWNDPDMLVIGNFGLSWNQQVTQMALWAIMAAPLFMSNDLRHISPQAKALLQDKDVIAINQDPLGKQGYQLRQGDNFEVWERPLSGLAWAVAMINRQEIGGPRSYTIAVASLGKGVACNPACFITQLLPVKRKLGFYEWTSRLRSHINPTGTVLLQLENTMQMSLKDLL
# miR-21 reporter: miR-21 reporter, rising signal. HeLa miR-21 FLuc reporter, luciferase, 48 h. Potency, µM (doses to about 38.3 µM), for the others: at the highest dose reporter change, positive = more light. 340,000 tested, under 10 active; active = well fitted rising curve with a large enough effect; inconclusive = small, poorly fitted or top-dose-only effect; inactive = no such curve, though single readings can be large or run the other way;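 further: % of control where 0% means no effect; miR-21 action dims this reporter so a rising signal means less miR-21 action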
#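 Using DMEM plus 10% FBS, HeLa miR-21-FLuc cells are incubated with test compounds (final up to about 40uM) for 48 hours; firefly luciferase signal is then imaged following reagent-mediated lysis.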
# * = called active by the depositor; ? = inconclusive; . = no result given; & = joins results of further samples. Not all compounds are listed (hit frequency here may not be typical).
item	Structure	Rango release inh	Rango-impB inh	miR-21 reporter	GLA inh pH 4.5
1	Cc1ccc(OCCNC(=O)CCNS(=O)(=O)c2ccc(Br)cc2)cc1	10.6%	2.1%	.	.
2	CCc1c(C)[nH]n(-c2nc(-c3cccc([N+](=O)[O-])c3)cs2)c1=O	-3.7%	-4.2%	-24.2%	-0.9
3	O=[N+]([O-])c1ccc(-c2cn(-c3ccccc3)c(=S)[nH]2)cc1	-15.9%	3.4%	-19.1%	-4.9
4	COc1cc2[nH]c(=S)nc(NCc3ccc(C)cc3)c2cc1OC	-3.8%	1.2%	1.9%	.
5	COc1ccccc1Nc1ccncc1[N+](=O)[O-]	-19.2%	-1.2%	14.3%	-0.6
6	CNC(=O)c1ccc(CNC(=O)OCc2ccccc2)cc1	-13.6%	0.8%	-18.2%	-2.2
7	Cc1ccc(CN2CCc3[nH]c(=S)[nH]c(=O)c3C2)cc1	-2.6%	-1.3%	1.6%	.
8	COc1ccc(NC(=O)C2CCCN2C(=O)NC2CCCCC2)cc1OC (stereo unspecified)	?	?	-0.1%	-4.7
9	Cn1c(COc2ccc(Cl)cc2)nc2ccccc2c1=O	-14.3%	?	-31.0%	0.1
10	CCOc1ccc(N2C(=O)CC(N(Cc3ccco3)C(=O)CCC(=O)O)C2=O)cc1 (stereo unspecified)	0.0%	4.0%	-2.7%	-6.6
11	COC(=O)C1=C(C)OC(N)=C(C#N)C1C1CCCCC1 (stereo unspecified)	-0.2%	2.4%	0.5%	5.4
12	O=C(Cc1ccccc1)Nc1ccccc1C(=O)Nc1ccccc1	2.4%	3.2%	-23.0%	2.4

item	Structure	Rango release inh	Rango-impB inh	miR-21 reporter	GLA inh pH 4.5
13	O=C(Nc1ccccc1)OC1CC2CC1C1CCCC21 (stereo unspecified)	-3.7%	2.9%	-58.5%	-0.1
14	Cc1ccccc1OCCCC(=O)Nc1nncs1	-20.7%	-2.3%	-18.8%	-3.8
15	O=C(N/N=C/c1ccc2c(c1)OCO2)C(=O)N1CCCC1	-7.6%	-0.4%	-30.5%	13.1
16	O=C(N/N=C/C=C/c1ccco1)c1cccnc1	-16.8%	0.0%	-3.5%	2.7
17	C=CCNc1cc(=O)n(Cc2ccccc2)c(=O)[nH]1	-7.5%	1.9%	.	.
18	CC(=O)Nc1ccc(S(=O)(=O)N[C@@H](C)C(=O)N2CCN(c3ccccn3)CC2)cc1	-8.1%	-0.5%	.	.
19	COc1ccc(C)cc1N1CC(C(=O)Nc2ccccc2N2CCCCC2)CC1=O (stereo unspecified)	-14.5%	-0.2%	.	.
20	COc1ccc(C2CC(C(F)(F)F)n3nc(C(=O)Nc4ccc5c(c4)OCO5)cc3N2)cc1 (stereo unspecified)	-21.7%	-2.9%	0.4%	-2.3
21	CC1(C)CC2CC(C)(CN2C(=O)c2cc(-c3ccccc3)on2)C1 (stereo unspecified)	-13.0%	-0.6%	3.5%	.
22	CC(=O)c1ccccc1NC(=O)COC(=O)/C=C/c1ccc(C)o1	0.3%	-0.7%	-6.9%	5.5
23	CCC1CCCCN1CC(C)(C)NS(=O)(=O)c1ccccc1 (stereo unspecified)	-6.7%	-0.3%	-6.0%	1.2
24	O=C(CSc1cccc[n+]1[O-])Nc1ccccc1C(F)(F)F	15.7%	0.0%	.	.

item	Structure	Rango release inh	Rango-impB inh	miR-21 reporter	GLA inh pH 4.5
25	CCCCNC(=O)c1ccc(CS(=O)(=O)c2cccc(C(F)(F)F)c2)o1	-18.1%	-4.9%	-0.6%	-10.6
26	CCN1CCN(C2=C(NS(=O)(=O)c3ccc(C)cc3)C(=O)c3ccccc3C2=O)CC1	-25.1%	-2.2%	12.2%	.
27	CCS(=O)(=O)N1Cc2ccccc2CC1C(=O)OCC(=O)Nc1ccc(SC(F)F)cc1 (stereo unspecified)	17.4%	-3.9%	-1.7%	-10.7
28	O=C(NNC(=O)c1ccncc1)c1ccncc1	-5.0%	0.5%	-0.9%	-7.2
29	Cc1ccc(OCCNC(=O)c2ccco2)cc1C	-3.7%	3.8%	-32.8%	-12.6
30	Cc1ccc(NC(=O)CC(C(=O)O)c2ccccc2)cc1 (stereo unspecified)	33.6%	-1.8%	-1.3%	-8.2
31	COC(=O)Nc1csc2c1NC(=O)CCCC2	37.0%	3.2%	-1.0%	-2.8
32	Cn1nc(C(=O)NCc2ccc(Cl)cc2)c2c1-c1ccccc1S(=O)(=O)C2	11.6%	-2.5%	6.9%&1.6%	.
33	O=C(N=NC(=O)c1ccc2c(O)n(CC3CCCO3)c(O)c2c1)c1cccnc1 (stereo unspecified)	34.7%	2.2%	3.8%	-3.3
34	O=C(NC(=S)Nc1ccc(Cl)cc1)c1cncc(Br)c1	-13.3%	1.2%	.	.
35	COc1ccc(C2=NN(CCC(=O)NCC3CCCO3)C(=O)CC2)cc1 (stereo unspecified)	-4.4%	-3.3%	-1.6%	.
36	CCC(C)NC(=O)C1CC(c2cccc(OC)c2)=NO1 (stereo unspecified)	-4.6%	1.0%	-8.2%	3.4

item	Structure	Rango release inh	Rango-impB inh	miR-21 reporter	GLA inh pH 4.5
37	O=C(Nc1ccccc1)N1CCC(C(=O)N2CCN(Cc3ccccc3)CC2)CC1	3.2%	-0.7%	.	.
38	COc1cc(OC)c(OC)cc1/C=N/NC(=O)c1cnccn1	-6.2%	4.7%	0.2%	2.2
39	CC(C)CC(=O)Nc1ccccc1N1CCN(c2ccccc2)CC1	10.5%	0.3%	3.0%	-0.1
40	COc1ccc(N2CCN(C(=O)C(C)(C)Oc3ccc(Cl)cc3)CC2)cc1	-9.3%	1.0%	11.4%	7.5
41	Nc1nc(N)nc(-c2ccccc2)n1	-3.8%	6.3%	-6.8%	-1.3
42	CCOc1ccc(C2Nc3ccc4ccccc4c3-c3c2c(=O)oc2ccccc32)cc1 (stereo unspecified)	-16.8%	-7.2%	-35.0%	?
43	COc1cccc(CCc2nnc(CCC(=O)N(C)C3CC(C)(C)NC(C)(C)C3)o2)c1	2.9%	-5.4%	-5.6%	.
44	CCOCCCNC(=O)/C(C#N)=C/c1ccc(Cl)c([N+](=O)[O-])c1	-0.4%	-3.9%	?	0.7
45	O=C(O)CCc1ccc(S(=O)(=O)Nc2ccccc2C(=O)NCCc2ccccc2)cc1	-0.5%	-4.5%	-60.3%	.
46	O=C(c1cc(-c2ccc(Br)cc2)nc2ccccc12)N1CCN(c2ccccc2O)CC1	-3.3%	1.6%	.	.
47	NC(=O)c1ccccc1OCc1cccc2ccccc12	15.3%	-4.1%	-20.3%	.
48	O=c1[nH]c(C2CCCN(S(=O)(=O)c3ccc(F)cc3)C2)nc2c1nnn2Cc1ccc(F)cc1 (stereo unspecified)	-5.0%	-3.1%	-4.0%	.

# Four neighbouring records already listed, for reference:
item	Structure	Rango release inh	Rango-impB inh	miR-21 reporter	GLA inh pH 4.5
37	O=C(Nc1ccccc1)N1CCC(C(=O)N2CCN(Cc3ccccc3)CC2)CC1	3.2%	-0.7%	.	.
38	COc1cc(OC)c(OC)cc1/C=N/NC(=O)c1cnccn1	-6.2%	4.7%	0.2%	2.2
39	CC(C)CC(=O)Nc1ccccc1N1CCN(c2ccccc2)CC1	10.5%	0.3%	3.0%	-0.1
40	COc1ccc(N2CCN(C(=O)C(C)(C)Oc3ccc(Cl)cc3)CC2)cc1	-9.3%	1.0%	11.4%	7.5

# Additional structures follow.
item	Structure	Rango release inh	Rango-impB inh	miR-21 reporter	GLA inh pH 4.5
49	CC1Sc2ccc(S(=O)(=O)N3CCC(C(=O)NCCc4ccccc4)CC3)cc2NC1=O (stereo unspecified)	7.1%	-5.5%	11.9%	.
50	CN1CCC(NC(=O)Nc2cccc(C(F)(F)F)c2)CC1	0.0%	0.8%	-4.4%	4.7
51	O=C(CSc1nnc(-c2ccccc2Cl)n1Cc1ccco1)Nc1ccc2c(c1)OCCO2	-15.0%	0.6%	8.9%	-5.3
52	Cc1occc1C(=O)N1CCN(c2ccc(Cl)c(Cl)c2)CC1	1.9%	-4.8%	0.6%	-2.6
53	O=C(CSc1nc2ccccc2c(=O)n1-c1ccc(F)cc1)Nc1ccc(C(=O)O)cc1	-0.9%	-2.7%	-5.2%	.
54	CCOC(=O)C1(CCc2ccccc2)CCN(C(=O)C2=C(C)OCCO2)CC1	4.5%	-2.9%	-13.1%	-0.7
55	O=C(COc1ccc2c(C(F)(F)F)cc(=O)oc2c1)Nc1ccc2c(c1)OCCO2	?	?	3.3%	7.3
56	CC(=O)Nc1ccc(S(=O)(=O)NC(C)(C#N)C2CC2)cc1 (stereo unspecified)	1.6%	-3.4%	9.3%	.
57	O=C(C(Cc1ccccc1)N1C(=O)C2C3C=CC(C3)C2C1=O)N1CCCCCC1 (stereo unspecified)	-0.6%	-1.3%	-5.3%	-4.8
58	O=[N+]([O-])c1cccc(OCc2cn3cccnc3n2)c1	19.2%	-1.6%	-25.9%	5.1
59	O=C(O)c1cc(N2C(=O)C=CC2=O)cc(N2C(=O)C=CC2=O)c1	-4.0%	-3.6%	.	.
60	CC1(C)C(=O)Nc2ccccc2N1C(=O)CSc1nnc2c(Cl)cc(Cl)cn12	?	0.9%	-0.9%	-9.2

item	Structure	Rango release inh	Rango-impB inh	miR-21 reporter	GLA inh pH 4.5
61	Cc1ccc(C)c2[nH]c(=O)c(C(c3nnnn3C(C)(C)C)N3CC=C(c4ccc(F)cc4)CC3)cc12 (stereo unspecified)	0.7%	?	-5.3%	-0.9
62	CC(C)Cc1cc(C(=O)N2CCC(N3CCC(C(=O)N4CCCC4)CC3)CC2)n[nH]1	-1.5%	-4.7%	-0.9%	1.3
63	CCn1c(=S)sc2c(=O)n(CC(=O)Nc3ccc(Cl)cc3)c(C)nc21	-9.8%	3.9%	16.5%	.
64	COc1ccc(S(=O)(=O)N(C)CC(=O)NCCCN2CCOCC2)cc1C	-14.1%	?	.	.
65	COc1ccccc1NC(=O)CSc1nc(=O)n(CCN2CCOCC2)c2c1CCC2	-21.5%	4.1%	.	.
66	CC(C(=O)O)n1c(-c2ccn[nH]2)n[nH]c1=S (stereo unspecified)	31.8%	2.0%	-1.2%	-0.1
67	Cn1cc([N+](=O)[O-])c(C(=O)Nc2ccn(C34CC5CC(CC(C5)C3)C4)n2)n1	-11.6%	-0.5%	-19.7%	-7.3
68	Cc1ccnc(NC(=O)c2c(-c3ccccc3Cl)noc2C)c1	-0.6%	5.9%	-26.7%	1.9
69	COc1ccc(OCc2cccc(C(=O)O)c2)cc1	2.3%	-0.3%	-1.9%	-1.6
70	CCNS(=O)(=O)c1c(C)cc(C)c(N(C)S(=O)(=O)c2ccccc2)c1C	-4.6%	0.7%	-2.8%	-4.1
71	Cc1c(N2C(=O)C(=O)/C(=C(/O)c3ccccc3)C2c2ccc(F)cc2)c(=O)n(-c2ccccc2)n1C (stereo unspecified)	2.6%	2.4%	-0.7%	-11.6
72	Cc1cc[n+](CC(=O)Nc2nc3ccccc3s2)cc1	1.2%	-1.4%	-3.5%	4.8

item	Structure	Rango release inh	Rango-impB inh	miR-21 reporter	GLA inh pH 4.5
73	COc1ccc(C(=O)NCCc2cccc(Cl)c2)cc1OC1CCN(C(C)=O)CC1	22.7%	2.6%	-10.0%	.
74	O=[N+]([O-])c1ccccc1S(=O)(=O)Nc1cccc(-c2ccc(N3CCOCC3)nn2)c1	-12.9%	-2.0%	.	.
75	O=C(Cn1c(=O)oc2ccccc21)Nc1ccc(S(=O)(=O)N2CCCCC2)cc1	-1.2%	-1.4%	-0.4%	-1.3
76	Cc1sc2ccccc2[n+]1CCC(C)S(=O)(=O)[O-] (stereo unspecified)	-7.3%	1.5%	0.2%	6.5
77	O=C(c1cccc(C(F)(F)F)c1)N1CCC(O)(CS(=O)(=O)Cc2ccccc2Cl)CC1	14.7%	-1.0%	1.6%	4.2
78	O=C(NCc1ccc(Cl)cc1)c1cc(=O)[nH]c2ccccc12	-11.2%	-0.2%	0.1%	.
79	COC(C(=O)Nc1ccc(F)cc1F)c1ccccc1 (stereo unspecified)	-5.4%	?	-3.0%	-5.9
80	CC1CCc2cc(F)ccc2N1C(=O)c1cccnc1 (stereo unspecified)	3.5%	?	1.0%	.
81	COC(=O)c1ccc(C(=O)OC)c(NC(=O)COC(=O)C2CC2C)c1 (stereo unspecified)	0.8%	0.1%	0.8%	-2.5
82	COc1cc(C(NC=O)C(=O)Nc2c(C)cccc2C)ccc1O (stereo unspecified)	1.6%	3.3%	-1.6%	-7.3
